# Screening data: PubChem, Johns Hopkins Ion Channel Center
# KCNQ2 enhance – potentiators of rat KCNQ2 potassium channel. O88943. CHO-K1 KCNQ2, FluxOR thallium flux fluorescence; active compounds read high. B-score at 10 µM. 0.54% of 310,000 active. AID 2239;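 active = fluorescence ratio B-score at least 3 SD of library B-scores, with initial fluorescence B-score within 3 SD, cut at about 5.3 in these data; same plate scores as AID 2156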;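 note: B-score of peak minus minimum over baseline fluorescence ratio after K+ and Tl+ stimulus; positive B-score means potentiation of KCNQ2 with more thallium influx and brighter signal; only the inactives scoring about 0 or higher are listed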
# Target sequence (O88943 whole entry, looked up): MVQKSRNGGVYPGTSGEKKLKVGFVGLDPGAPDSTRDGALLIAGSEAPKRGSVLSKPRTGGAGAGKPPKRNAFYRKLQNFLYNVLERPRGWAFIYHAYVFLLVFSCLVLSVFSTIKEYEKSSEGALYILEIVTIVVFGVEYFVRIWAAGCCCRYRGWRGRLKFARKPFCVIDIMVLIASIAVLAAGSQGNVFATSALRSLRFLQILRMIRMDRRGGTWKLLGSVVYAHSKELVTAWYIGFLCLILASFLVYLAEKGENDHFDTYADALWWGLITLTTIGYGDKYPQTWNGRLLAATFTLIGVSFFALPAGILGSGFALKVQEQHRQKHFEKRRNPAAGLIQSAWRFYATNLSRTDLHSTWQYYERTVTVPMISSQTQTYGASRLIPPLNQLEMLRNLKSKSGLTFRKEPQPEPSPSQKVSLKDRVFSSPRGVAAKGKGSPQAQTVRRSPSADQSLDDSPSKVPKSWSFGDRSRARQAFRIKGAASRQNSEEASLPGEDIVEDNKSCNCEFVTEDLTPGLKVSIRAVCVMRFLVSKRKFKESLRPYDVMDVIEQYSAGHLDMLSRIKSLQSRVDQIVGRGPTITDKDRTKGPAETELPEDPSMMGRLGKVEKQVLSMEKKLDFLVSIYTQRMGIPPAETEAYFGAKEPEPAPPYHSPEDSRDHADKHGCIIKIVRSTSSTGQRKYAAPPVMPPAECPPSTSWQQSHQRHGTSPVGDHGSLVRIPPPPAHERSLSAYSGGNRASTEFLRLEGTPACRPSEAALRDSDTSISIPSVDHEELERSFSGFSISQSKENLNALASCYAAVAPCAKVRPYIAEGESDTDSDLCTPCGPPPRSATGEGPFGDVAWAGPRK
# KCNQ2 enhance baseline – recorded beside KCNQ2 enhance, whose call it bears; B-score; compound at 10 µM; measured here: initial fluorescence intensity artifact check;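 brightness before thallium and not channel activity; 0 = typical well and far values either way flag optical interference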
# Numbers without * were called inactive. Only part of the results is shown. The share of hits here may be higher or lower than overall.
KCNQ2 enhance,KCNQ2 enhance baseline,SMILES
1,-0.33,Cc1ccc(NC(=S)NC(NC(=O)N(C)C)C(Cl)(Cl)Cl)cc1 (centres undefined)
2,0.86,Cc1ccc(NC(=O)C2C3C=CC4(O3)C2C(=O)N(CCCN2CCCCC2)C4C(=O)NC2CCCCC2)cc1Cl (centres undefined)
0.18,-0.06,O=C(CN1CCN(Cc2ccc(F)cc2Cl)C1=O)NCCCN1CCOCC1
0.49,0.32,CC(Cn1cncn1)NC(=O)c1cc(COc2cccc(C(F)(F)F)c2)on1 (centres undefined)
1.1,0,CCc1noc(C)c1C(=O)Nc1cc(S(=O)(=O)N2CCOCC2)ccc1OCC(F)(F)F
2.2,0.39,COC(=O)c1cccc(NC(=O)CCSc2ccc(Cl)cc2)c1C
0.12,-0.08,COc1cccc(C2CC(C(F)(F)F)n3ncc(C(=O)Nc4c(C)n(C)n(-c5ccccc5)c4=O)c3N2)c1 (centres undefined)
0.7,-0.2,COC(=O)C(NC(=O)CCC(=O)N[C@@H](C(=O)OC)c1ccccc1)c1ccccc1 (some centres undefined)
1.2,0.06,COc1cc(NC(=O)CSc2nc(=O)n(CCCN3CCOCC3)c3c2CCC3)cc(OC)c1
2.7,0.05,CCN(CC)c1ccc(NC(=O)Cn2nnc(-c3cccc(OC)c3OC)n2)c(C)c1
0.02,0.19,O=C(COC(=O)C1CCN(S(=O)(=O)c2ccc3c(c2)OCCO3)CC1)NC1CCCCC1
0.01,0.75,Cc1nc2scc(-c3ccc(Cl)cc3)c2c(=O)o1
0.1,0.01,CCOCCCNC(=S)N1CCCN(c2nc3cc(C)c(C)cc3cc2C#N)CC1
0.46,-0.52,C/C(CC(=O)Nc1cccc(F)c1)=N\NC(=O)C(=O)NC1CCCCC1
1.9,-0.82,Cc1nc(NC(=O)c2csc3ccccc23)sc1C
0.07,0,O=C(Cn1c(NCCO)nc2ccccc21)c1ccc(Cl)cc1
0.55,0.65,COC(=O)c1ccc(Cn2nnc3ccccc32)cc1
2.4,0.28,CCOC(=O)c1oc2cc(O)c(CC)cc2c(=O)c1-c1cscn1
1.2,0.15,CC(C)OCCCNC(=O)c1cn(C)c2ccc(S(=O)(=O)N(C)C3CCCCC3)cc2c1=O
0.1,1.1,CCn1c(CNc2ccc(Cl)cc2)nnc1SCCN1CCCCC1
0.33,0,C=CCNC(=O)c1nn2cccnc2c1Cl
0.67,0.3,O=C(/C=C/c1cccs1)NC(=S)NNC(=O)Cc1cccs1
0.56,0.33,CCOC(=O)N1CCN(Cc2nc(-c3ccccc3)no2)CC1
0.79,-0.39,Cc1ccc(S(=O)(=O)N2CC(O)CC2C(=O)OCC(=O)c2ccccc2Cl)cc1C (centres undefined)
1.6,-0.25,Cc1ccc(CNC(=O)c2cc3c(C)nc4ccccc4c3o2)cc1
0.59,0.04,CCOC(=O)c1ccc(NC(=O)c2ccc(CO)c(C(=O)NC3CCN(C(=O)OCC)CC3)c2)cc1
0.87,-0.52,O=S(=O)(NCCSc1ccccn1)c1ccc(Cl)cc1
0.13,0.06,COc1ccc(CNC(=O)C2CCN(C(=O)c3csc(Nc4ccc(C)cc4)n3)CC2)cc1
0.65,-1.2,COC(=O)c1cc2c(N)c(C(=O)c3ccccc3)sc2nc1C(OC)OC
0.75,2,COc1cc2c(cc1OC)CN(Cc1cc(OC)c(O)c(OC)c1)CC2
1.7,-0.55,Cc1cc(N2CCN(C(c3ccccc3)c3ccc(Cl)cc3)CC2)n2ncnc2n1 (centres undefined)
0.09,0.11,CCCCN(C)CCNC(=O)c1ccc2c(c1)NC(=O)C(N1CCCCC1)S2 (centres undefined)
0.08,-0.11,CCCCCCCNC(=O)C1CC(=O)N(C)C(=Nc2ccc(OC)cc2)S1 (centres undefined)
1.4,0.78,O=C(COc1ccc2ccccc2c1)NCC(=O)N/N=C/c1ccco1
1.4,1,COc1ccc(NC(=O)C2CC(=O)N(C(C)C)C2)cc1 (centres undefined)
0.04,0.03,COc1cc(/C=N/Nc2nncc3ccccc23)cc(OC)c1OC
2.3,-2,CC(C)(C)C(=O)NC1=NN(c2c(Cl)cc(Cl)cc2Cl)C(=O)C1
0.8,1.1,CC(C)Oc1ccc(/C=N/NC(=O)c2nnn(-c3nonc3N)c2CN(C)C2CCCCC2)cc1
1.6,0.18,O=C(NCCc1ccc(Cl)cc1)C1CCCN1C(=O)Nc1ccc(F)cc1 (centres undefined)
0.08,0.5,Cc1[nH]c2ccccc2c1CCCO
0.19,1.4,CC1CCCN(CCC(=O)Nc2ccccc2)C1 (centres undefined)
0.33,-0.95,CCCCN1CC(=O)N2[C@H](c3ccc(OC)cc3)[C@@H]3C(=O)N(CC)C(=O)[C@@H]3[C@]2(Cc2ccccc2)C1=O
0.01,-1.4,CCN1C(=NCc2ccc(OC)cc2)N[C@@H](c2ccccc2)C(C(=O)OC)=C1C
0.2,-1.3,O=C1CCC(O)CCN1CCSc1ccccc1 (centres undefined)
1.6,1.1,COC(=O)Cc1cnc(NC(=O)CSc2nc(C(C)C)cc(=O)[nH]2)s1
1.6,1,NNC(=O)COc1ccccc1[N+](=O)[O-]
1.2,-2.4,Cc1cc(NC(=O)c2ccc(S(=O)(=O)N(C)C)cc2)no1
1.7,-0.6,Cc1nc2nc(SCC(=O)N3CCOCC3)nn2c(C)c1Cc1ccccc1
0.83,0.99,CCCN1CCN(C(=O)c2cc(COc3ccc4ncccc4c3)on2)CC1
1.2,0.05,CCCS(=O)(=O)N1CCC(C(=O)NCc2ccc(F)cc2)CC1

# Three entries already listed, arranged by formula weight, highest first:
KCNQ2 enhance,KCNQ2 enhance baseline,SMILES
1.6,1.1,COC(=O)Cc1cnc(NC(=O)CSc2nc(C(C)C)cc(=O)[nH]2)s1
1.2,-2.4,Cc1cc(NC(=O)c2ccc(S(=O)(=O)N(C)C)cc2)no1
0.2,-1.3,O=C1CCC(O)CCN1CCSc1ccccc1 (centres undefined)

# (listing goes on)
KCNQ2 enhance,KCNQ2 enhance baseline,SMILES
0.39,2.4,CCc1n[nH]c(=S)n1/N=C/C(C)=C\c1ccccc1
0.77,0.1,O=C(O)C1C2CCC(C2)C1C(=O)Nc1ccccc1 (centres undefined)
1.4,-2.1,COc1ccc(NC(=S)Nc2cc(-c3ccccc3)[nH]n2)cc1Cl
0.64,0.14,CCN(CC(=O)NCc1ccc(F)cc1)Cc1cc(=O)n2ccsc2n1
0.07,-0.3,Cc1cc(Cl)ccc1OCC(=O)Nc1cccc(S(=O)(=O)NC2=NCCCCC2)c1
0.53,0.48,Nn1c(COc2ccccc2)nc2ccccc2c1=O
0.43,-0.92,COc1cc(/C=N/NC(=O)c2[nH]nc3c2CCc2ccccc2-3)ccc1O
1.1,-1.2,O=C(CSc1cccc[n+]1[O-])Nc1cc([N+](=O)[O-])ccc1Cl
0.68,0.14,COc1ccc(-n2nnnc2SCC(=O)Nc2ccccc2F)cc1
0.73,0.03,CN(C)S(=O)(=O)c1ccc(N2CCCC2)c(C(=O)NC2(C)CCS(=O)(=O)C2)c1 (centres undefined)

# Some of the entries so far, with values under each structure:
# Fields – KCNQ2 enhance, KCNQ2 enhance baseline
- CCN(CC)c1ccc(NC(=O)Cn2nnc(-c3cccc(OC)c3OC)n2)c(C)c1
→ 2.7, 0.05
- O=C(COC(=O)C1CCN(S(=O)(=O)c2ccc3c(c2)OCCO3)CC1)NC1CCCCC1
→ 0.02, 0.19
- Cc1nc2scc(-c3ccc(Cl)cc3)c2c(=O)o1
→ 0.01, 0.75
- CCOCCCNC(=S)N1CCCN(c2nc3cc(C)c(C)cc3cc2C#N)CC1
→ 0.1, 0.01
- C/C(CC(=O)Nc1cccc(F)c1)=N\NC(=O)C(=O)NC1CCCCC1
→ 0.46, -0.52
- Cc1nc(NC(=O)c2csc3ccccc23)sc1C
→ 1.9, -0.82

# (more compounds)
KCNQ2 enhance,KCNQ2 enhance baseline,SMILES
0.22,-0.38,Cn1c(=O)c2c(SCC(=O)Nc3ccccc3F)nc(-c3ccccc3F)nc2n(C)c1=O
3.6,-1.1,CC(/C=N/n1c(-c2ccc(C)cc2)n[nH]c1=S)=C\c1ccco1
1.3,1.1,CCOC(=O)N1CCc2c(sc(NC(=O)C3=COCCO3)c2C(N)=O)C1
1.3,0.27,COc1ccc(C(=O)OCC(=O)NC(C)CCc2ccccc2)cc1OC (centres undefined)
0.22,-0.99,CC1=NN(S(=O)(=O)c2ccc(C)cc2)C(=O)c2ccccc2O1
0.89,1,Cc1ccc2c(c1)N(CCCC(=O)Nc1cccc(C(F)(F)F)c1)C(=O)CO2
1.1,-0.21,CCOc1ccc(NC(=O)Nc2ccccc2C(N)=O)cc1
0.54,0.86,CC(=O)c1c(OC(=O)c2ccccc2Br)ccc2c(C)cc(=O)oc12
1,-0.35,Cc1ccc(C2(C)NC(=O)N(CC(=O)NC(C)c3ccccc3)C2=O)cc1 (centres undefined)
0.17,0,COC(=O)C1=C(N)Oc2cc(C)n(Cc3cccnc3)c(=O)c2C1c1ccccc1OC (centres undefined)
0.17,-3.5,COc1ccc(NS(=O)(=O)c2cccc(C(=O)NCC(c3ccc(OC)cc3)N3CCCC3)c2)cc1 (centres undefined)
0.05,0.42,O=C(NCC1CCCO1)C1c2ccccc2C(=O)N1Cc1ccc2c(c1)OCO2 (centres undefined)
0.5,-0.02,O=C(O)CNC(=S)N(Cc1ccco1)Cc1ccccc1Cl
0.04,-0.08,Cn1c(C(=O)NC2CCCC2)cc2c(=O)n(C)c3ccccc3c21
0.78,0.01,c1ccc(CCNC2=NCCS2)cc1
0.49,0.23,COc1ccc(NC(=O)C(=O)NCCN2CCN(C(=O)c3cccc(Br)c3)CC2)cc1
0.14,-1.1,O=C(COC(=O)c1cc2ccccc2oc1=O)Nc1cccc(S(=O)(=O)N2CCCCCC2)c1
1.3,0.04,OC(COCc1ccccc1)CN1CCCCC1 (centres undefined)
0.87,0.88,Cc1cc([N+](=O)[O-])nn1CC(=O)N1CCN(Cc2ccccc2)CC1
0.03,0.45,OCCN(Cc1ccccc1)Cc1ccc(Cl)cc1

# Single entries from the entries so far.
# c1ccc(CCNC2=NCCS2)cc1 – KCNQ2 enhance = 0.78
# Cn1c(C(=O)NC2CCCC2)cc2c(=O)n(C)c3ccccc3c21 – KCNQ2 enhance = 0.04
# OCCN(Cc1ccccc1)Cc1ccc(Cl)cc1 – KCNQ2 enhance = 0.03
# O=C(COC(=O)c1cc2ccccc2oc1=O)Nc1cccc(S(=O)(=O)N2CCCCCC2)c1 – KCNQ2 enhance baseline = -1.1
# OC(COCc1ccccc1)CN1CCCCC1 (centres undefined) – KCNQ2 enhance baseline = 0.04

# (further entries)
KCNQ2 enhance,KCNQ2 enhance baseline,SMILES
1.1,1.4,Cc1ccc(S(=O)(=O)NC(N)=NCCc2ccccc2)cc1C
1.2,-0.46,CCn1cc(C(=O)N2CCN(c3ccc(OC)cc3)CC2)c2cc(OC)c(OC)cc2c1=O
0.11,0.29,Cc1ccc(C)c(NC(=O)CN2C(=O)COc3ccc(S(=O)(=O)N4CCCC4)cc32)c1
0.84,-0.75,O=C(CSc1nnnn1-c1ccc2c(c1)OCCO2)N1CCc2ccccc21
0.9,0.23,Cc1cccc(NC(=O)c2cc(-c3cccnc3)nc3c(C)cccc23)n1
2.5,-0.09,Cc1nc(C)c(-c2csc(Nc3ccc(S(N)(=O)=O)cc3)n2)s1
0.73,-0.56,Nc1ccc2c(c1)C(=O)c1ccccc1-2
0.69,-0.48,COc1cccc(C2/C(=C(/O)c3cnn(-c4ccccc4)c3C)C(=O)C(=O)N2CCN(C)C)c1 (centres undefined)
0.67,0.82,COc1ccc(CNC(=O)[C@H](C)NC(=O)C2CCN(S(=O)(=O)c3ccc(C)cc3)CC2)cc1
0.84,1.9,CC(=O)Nc1cccc(NC(=O)CSc2nc(=O)n(Cc3ccccn3)c3c2CCC3)c1
1.5,0.53,Cc1oc2ccc(NS(=O)(=O)c3ccc(F)cc3)cc2c1C(=O)O
0.15,-0.39,CC(=O)c1ccc(NC(=O)C[n+]2ccccc2)cc1
0.24,0.37,C/C(=N\NC(=O)c1cc(C)nc2ccc(C)cc12)c1ccncc1
0.03,-0.36,O=C(O)CCC(=O)Nc1ccc(Br)cc1C(=O)c1ccc(Cl)cc1
0.16,-2.1,COc1ccc(NC(=S)Nc2ccc3cn[nH]c3c2)cc1
0.02,1.5,CC(C)(C)c1ccc(CNc2cc(N3CCOCC3)ccc2[N+](=O)[O-])cc1
1.8,0.57,CCOC(=O)N1CCC(n2c(=S)[nH]c3cc(OC)c(OC)cc3c2=O)CC1
1.6,-0.04,N/C(CSc1ncccc1C(F)(F)F)=N\O
0.14,-0.06,Cc1cc(NC(=O)c2ccc(Cl)c([N+](=O)[O-])c2)no1
0.62,2.9,C=CCNC(=S)N1CCN(CCN=CC2=C(O)CC(c3ccco3)CC2=O)CC1 (centres undefined)
0.07,1.1,COCCCn1c(=O)/c(=C\c2ccc(OC(F)F)c(OC)c2)s/c1=C(/C#N)C(N)=O
1.5,0,COc1cccc(/C=C/C(=O)OC(C)C(=O)Nc2c(C)n(C)n(-c3ccccc3)c2=O)c1 (centres undefined)
0.03,1.9,COc1ccc(C(C(=O)NC2CCCC2)N(Cc2ccccc2)C(=O)CNC(=O)c2ccco2)cc1 (centres undefined)
1.3,1.5,S=C1NC[C@H](c2ccccc2)N1CC1CCCCC1
0.49,2.3,Cc1cccc(-c2nsc(SCC(=O)Nc3ccc4c(c3)OCO4)n2)c1
1.6,-0.87,COc1ccc(S(=O)(=O)N2CN3CCN(C3)C2)cc1OC
0.02,1.5,O=C(OCc1c(Cl)cccc1Cl)c1cccnc1
0.23,0.52,CCn1ncc(Cl)c1C(=O)NC(C)c1ccccc1 (centres undefined)
0.81,1.8,COc1ccc(/C=N\NC(=O)COc2ccccc2)c(C(=O)O)c1OC
0.52,-0.46,Cc1ccccc1NC(=O)CSCCN1C(=O)c2ccccc2C1=O
0.58,-1.6,O=C1C2C3C=CC(C3)C2C(=O)N1c1n[nH]c(CCc2ccccc2)n1 (centres undefined)
1.2,-2,CC1(C)CC(N2CCC(=O)NC2=S)CC(C)(C)N1
0.46,0.15,CNC(=O)C(=O)Nc1c(O)c2ccccc2[nH]c1=O
